Screening results (PubChem BioAssay)
CapD inh = blocks the Bacillus anthracis CapD enzyme; purified CapD enzyme, fluorescence intensity read-out; active compounds read low; some hits fall short of the stated cut; z-score (concentration not given with the values); 140,000 compounds, 0.23% hits; AID 492967;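 active = z-score under -4 in either of two replicates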;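 note: stock transfer was 100 nL into about 40 µL; score is relative to mean and spread of the plate; one replicate is shown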
AID504770 = growth inhibitors of E. coli YBA685 in a screen for V. cholerae RctB (chromosome II replication) inhibitors; E. coli YBA685 rctB-dependent plasmid, OD600 growth, 3 h; active compounds read low; z-score (test concentration not listed); 130,000 compounds, 0.27% hits; AID 504770;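 active = z-score under -2 on both plates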;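 note: wells of about 30 µL received 100 nL stock; score is relative to mean and SD of the test wells; the first replicate is given; strong numbers were not always called active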
The depositor's hits bear a star; · = no result given; & = joins results of further samples. Some of the compounds tested; the hit share may differ from the screen's.

Every second line gives: CapD inh, AID504770
> O=c1oc2c(O)c(O)cc3c(=O)oc4c(O)c(O)cc1c4c23
  ·, 0.1
> CCc1ccc(CCOc2ccc(CC3SC(=O)NC3=O)cc2)nc1 (configuration not stated)
  ·, -0.1
> COc1ccc(-n2c(SCC#N)nc3sc4c(c3c2=O)CCCC4)cc1
  -0.445, ·
> O=C(O)c1cccnc1Nc1cccc(C(F)(F)F)c1
  -1.06&-0.335, -0.15
> CC(=O)CCCCn1c(=O)c2c(ncn2C)n(C)c1=O
  0.21&0.095, 0.15
> NC(N)=O
  0.28, -0.4
> CCn1cc(C(=O)O)c(=O)c2cnc(N3CCNCC3)nc21
  12.9&-0.205, -3.15*
> CCOC(N)=O
  0.07, 0.05
> COc1ccc2c(c1)-c1c(ssc1=S)C(C)(C)N2C(=O)CN1C(=O)C2CCCCC2C1=O (configuration not stated)
  -0.285, ·
> CCCCNc1ccc(C(=O)OCCOCCOCCOCCOCCOCCOCCOCCOCCOC)cc1
  -0.5, ·
> O=C1OC(Nc2ccc(S(=O)(=O)Nc3ccccn3)cc2)c2ccccc21 (configuration not stated)
  -1.39, 0.1
> Cc1ccc(N(CC2=NCCN2)c2cccc(O)c2)cc1
  0.635&-1.42, 0.4
> CCOC(=O)c1c(C)nc2sc3c(c2c1-c1ccccc1)CCCC3
  -0.285, ·
> CNCCCN1c2ccccc2CCc2ccccc21
  -0.465&0.415, 0.6
> C[N+]1(C)CCC(=C(c2ccccc2)c2ccccc2)CC1
  -1.44, ·
> C1COC(NC(C2CC2)C2CC2)=N1
  0.6, ·
> Cc1cc(N2CCN(C)CC2)nc2ccc(NC(=S)NCc3ccco3)cc12
  10.2, -0.45
> COc1cc2ncnc(Nc3cccc(Cl)c3)c2cc1OC
  13.6, ·
> N#Cc1ccc(C(c2ccc(C#N)cc2)n2cncn2)cc1
  -0.01, ·
> CC1Cc2ccccc2N1NC(=O)c1ccc(Cl)c(S(N)(=O)=O)c1 (configuration not stated)
  0.105, 0.3
> CN1CCCN=C1COC(=O)C(O)(c1ccccc1)C1CCCCC1 (configuration not stated)
  -0.275, 0.15
> CC[C@@H]1C(=O)OC[C@@H]1Cc1cncn1C
  0.535&-0.505, 0.2
> Cc1cn(C2CC(O)C(CO)O2)c(=O)[nH]c1=O (configuration not stated)
  ·, -0.35
> CC(=O)O[C@]1(C(C)=O)CC[C@H]2[C@@H]3C=C(Cl)C4=CC(=O)C5CC5[C@]4(C)[C@H]3CC[C@@]21C (some centres not stated)
  0.265, ·
> C/C=C/C(=O)N(CC)c1ccccc1C
  -0.41, 1.7
> CCOC(=O)[C@H](CCc1ccccc1)N[C@@H](C)C(=O)N1Cc2ccccc2C[C@H]1C(=O)O
  0.125, 0
> CCCCNc1ccc(C(=O)OCCN(C)C)cc1
  0.235&-0.385, 0
> O=C(O)CCC(=O)c1ccc(-c2ccccc2)cc1
  1.08&-0.845, -0.1
> CC1(c2ccccc2)CC(C)(C)N(C(=O)CN2CCOCC2)c2ccccc21 (configuration not stated)
  -0.175, ·
> CCN(CC)CCOC(=O)c1ccc(N)cc1
  -0.045&20.2, -0.25
> COc1ccc(C2CNC(=O)C2)cc1OC1CCCC1 (configuration not stated)
  -1.24, ·

For reference, 13 of the compounds above.
Every second line gives: CapD inh, AID504770
> Cc1cc(N2CCN(C)CC2)nc2ccc(NC(=S)NCc3ccco3)cc12
  10.2, -0.45
> COc1cc2ncnc(Nc3cccc(Cl)c3)c2cc1OC
  13.6, ·
> N#Cc1ccc(C(c2ccc(C#N)cc2)n2cncn2)cc1
  -0.01, ·
> CC1Cc2ccccc2N1NC(=O)c1ccc(Cl)c(S(N)(=O)=O)c1 (configuration not stated)
  0.105, 0.3
> CN1CCCN=C1COC(=O)C(O)(c1ccccc1)C1CCCCC1 (configuration not stated)
  -0.275, 0.15
> CC[C@@H]1C(=O)OC[C@@H]1Cc1cncn1C
  0.535&-0.505, 0.2
> Cc1cn(C2CC(O)C(CO)O2)c(=O)[nH]c1=O (configuration not stated)
  ·, -0.35
> CC(=O)O[C@]1(C(C)=O)CC[C@H]2[C@@H]3C=C(Cl)C4=CC(=O)C5CC5[C@]4(C)[C@H]3CC[C@@]21C (some centres not stated)
  0.265, ·
> C/C=C/C(=O)N(CC)c1ccccc1C
  -0.41, 1.7
> CCOC(=O)[C@H](CCc1ccccc1)N[C@@H](C)C(=O)N1Cc2ccccc2C[C@H]1C(=O)O
  0.125, 0
> CCCCNc1ccc(C(=O)OCCN(C)C)cc1
  0.235&-0.385, 0
> O=C(O)CCC(=O)c1ccc(-c2ccccc2)cc1
  1.08&-0.845, -0.1
> CC1(c2ccccc2)CC(C)(C)N(C(=O)CN2CCOCC2)c2ccccc21 (configuration not stated)
  -0.175, ·
